# NPR1 antag = Natriuretic polypeptide receptor (hNpr1) antagonism - Primary qHTS | Atrial natriuretic peptide receptor 1 (Homo sapiens), P16066 | HEK293 hNpr1 GloSensor cGMP, ANP-stimulated luminescence | Potency, µM (top dose mostly 46.3 µM), for inactives: at the highest dose activity change, negative = inhibition, hits mostly inhibitors | actives 1.6% (n = 76,000) | AID 1347048, 2019; active = well fitted inhibition curve with a large enough effect; inconclusive = small, poorly fitted or top-dose-only effect; inactive = no such curve, though single readings can be large or run the other way;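 note: nearly all actives have a fitted effect of over 60% in size; nearly all hits also lower the signal before the agonist is added; a reference antagonist and vehicle were the controls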
# Target sequence (P16066 whole entry, looked up): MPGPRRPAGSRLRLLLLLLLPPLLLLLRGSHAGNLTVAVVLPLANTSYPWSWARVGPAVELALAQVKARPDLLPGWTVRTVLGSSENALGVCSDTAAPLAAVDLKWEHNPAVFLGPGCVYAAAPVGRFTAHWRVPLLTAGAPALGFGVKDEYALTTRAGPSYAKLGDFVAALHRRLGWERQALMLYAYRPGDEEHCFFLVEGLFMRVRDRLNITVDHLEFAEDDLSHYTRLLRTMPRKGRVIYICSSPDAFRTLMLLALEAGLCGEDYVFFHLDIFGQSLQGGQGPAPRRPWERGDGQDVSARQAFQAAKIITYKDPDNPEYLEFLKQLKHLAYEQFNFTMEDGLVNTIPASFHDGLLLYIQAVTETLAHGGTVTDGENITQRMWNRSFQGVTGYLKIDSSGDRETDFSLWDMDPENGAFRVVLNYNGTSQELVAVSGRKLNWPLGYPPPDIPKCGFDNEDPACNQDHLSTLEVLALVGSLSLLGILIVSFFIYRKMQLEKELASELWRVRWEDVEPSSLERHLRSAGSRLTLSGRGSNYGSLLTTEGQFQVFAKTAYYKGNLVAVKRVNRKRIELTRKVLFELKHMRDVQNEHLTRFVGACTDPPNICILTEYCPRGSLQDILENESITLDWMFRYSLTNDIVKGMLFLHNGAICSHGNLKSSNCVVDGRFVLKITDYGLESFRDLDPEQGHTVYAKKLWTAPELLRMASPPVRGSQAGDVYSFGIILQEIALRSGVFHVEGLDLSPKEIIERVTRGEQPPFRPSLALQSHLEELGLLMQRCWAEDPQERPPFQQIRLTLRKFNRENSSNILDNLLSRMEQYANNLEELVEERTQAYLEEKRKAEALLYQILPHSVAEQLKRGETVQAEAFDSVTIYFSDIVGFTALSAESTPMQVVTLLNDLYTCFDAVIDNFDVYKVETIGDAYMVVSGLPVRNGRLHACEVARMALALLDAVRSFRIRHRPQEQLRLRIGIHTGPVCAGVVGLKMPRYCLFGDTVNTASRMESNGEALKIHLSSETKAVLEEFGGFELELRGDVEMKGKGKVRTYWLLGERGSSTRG
#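 Compound pre-incubated 30 min at room temperature on GloSensor-loaded HEK293 cells stably carrying hNpr1 and the pGS-40F cGMP biosensor. Stimulation uses hNppA at 0.1 nM final; luminescence is taken at baseline and 20 min post-agonist.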
# Starred values were filed as active, the others as inactive; u = inconclusive; [ ] = remark or other dose. % is set by controls: 0 for no effect and ±100 for the full control effect; potency is the fitted concentration of half-maximal effect. These rows are one share of the data. The share of hits here may be higher or lower than overall.
SMILES,NPR1 antag
Cc1ncncc1C(=O)N1CCOC(CC(c2ccccc2)c2ccccc2)C1 (stereo unspecified),0%
O=C(c1ccc(OC(F)F)cc1)N1C[C@H](CO)C[C@H](CN2CCCC2)C1,3%
CC(C)[C@]1(O)CN(C(=O)Cn2[nH]c3ccccc3c2=O)C[C@H]1C,5%
Cc1nnc2ccc(NC3CC3)nn12,3%
O[C@@H]1CCN(Cc2nc(C3(O)CCN(CC4CC4)CC3)cs2)C1,-1%[70.6 µM]
Cc1ccccc1S(=O)(=O)N1CCC(CCC(=O)NC2CC2)CC1,-1%
O=C(NCC1CCCO1)c1ccc(Cn2ccn3nc4c(c3c2=O)CCCC4)cc1 (stereo unspecified),-1%
Cc1ccc(NC(=O)C2CCN(c3cn[nH]c(=O)c3)C2)cc1 (stereo unspecified),-2%
O=C(NCC1CCCO1)c1ccc2oc(-c3ccc(C(F)(F)F)cc3)nc2c1 (stereo unspecified),u
Cc1cnn(CCC(=O)N[C@@H]2CN(C3CCOCC3)C[C@H]2CN(C)C)c1,4%
COc1cccc(C(C)N(C)Cc2nc(-c3cccs3)no2)c1 (stereo unspecified),-10%
N#Cc1cccc(-c2cn3c(n2)N(C(=O)Cc2ccsc2)CCC3)c1,0%
O=C(c1ccccc1)N1CCCC2(C1)C(=NC1CCCCC1)NC(=O)N2c1cccnc1 (stereo unspecified),22%
O=C(c1ccc(Oc2ccccc2)cc1)N1CCC2OCCN(c3ccccc3)C(=O)C2C1 (stereo unspecified),-5%
O=C(NCc1ccccn1)C1(CCO)CCN(c2ncccn2)C1 (stereo unspecified),1%
COCC1CCCCN1C(=O)c1ccc2oc(CCc3ccccc3)nc2c1 (stereo unspecified),-2%
COc1cccc([S+](=O)([O-])N2CCn3c(nn(-c4ccc(F)cc4F)c3=O)C2)c1,6%
COc1cccc(CCC(=O)N2CCCC2c2nc(C3CCOCC3)no2)c1 (stereo unspecified),0%
COc1cc(CN2CCN(c3ncnc(C)c3C)CC2CCO)cc(OC)c1 (stereo unspecified),1%
Cc1cccc(OCCc2noc(C3CCCCN3C(=O)NC(C)C)n2)c1 (stereo unspecified),-15%
Cc1nc(C)n(CCCNc2nccc(-c3ccccn3)n2)n1,2%
COc1ccccc1CC(=O)N1CCC2(CC1)NC(=O)N(Cc1ccc(F)cc1)C2=O,-18%
COCCOC1CCN(C(=O)CCc2nc3ccccc3s2)CC1,-1%
C#CCN(Cc1ccco1)Cc1cnc(S(C)(=O)=O)n1CCCc1ccccc1,-14%
CCc1cc(C(=O)N2CC[C@@H]3[C@@H](CCC(=O)N3CCN)C2)n(C)n1,-1%
SMILES,NPR1 antag
COc1cc(OC)cc(C(=O)N2[C@@H]3CC[C@H]2CC(NC(=O)c2ccc(F)cc2)C3)c1 (stereo partly specified),3%
COc1nccc(N2CCC(CC(=O)NCc3ccccc3F)CC2)n1,u
CCc1ccc(NC(=O)N2CCC(N3CC4CC(C3)[C@H]3CCCC(=O)N3C4)CC2)cc1 (stereo partly specified),2%
CC(C)c1ccc(CC(=O)N2CCCc3ncc(C(=O)NCc4ccc(F)cc4)cc32)cc1,-21%
O=C(c1nccc2ccccc12)N1CCC(n2cc(-c3nc(-c4ccccc4)no3)nn2)C1 (stereo unspecified),u
Cc1[nH]nc(CCC(=O)N[C@H]2CN(CCC(=O)O)C[C@@H]2C(C)C)c1C,17%
CNC(=O)[C@@H]1C[C@H](Oc2cccnc2)CN1C(=O)CC(C)C,0%
CNC(=O)[C@H]1C[C@H](Oc2ccccc2)CN1Cc1cccn1C,-16%
O=C(Cc1cccc(C(F)(F)F)c1)N1CCN(c2nnc3ccc(Cl)cn23)CC1,0%
O=C1CCN(S(=O)(=O)c2ccccc2)CCCN(Cc2ccc(C(F)(F)F)cc2)CCN1,-23%
O=C(N1CCC(Cc2nc(C3CC3)n[nH]2)CC1)C1(c2ccccc2)CC1,7%
O=C(C1CCC1)N1CCN(C(=O)N2CC3CC(C2)[C@H]2CCCC(=O)N2C3)CC1 (stereo partly specified),6%
COCCNC(=O)[C@@H]1C[C@H](Oc2cccnc2)CN1C(=O)c1ccc(OC)cc1,2%
COCCNC(=O)[C@H]1C[C@H](Oc2cccnc2)CN1C(=O)Nc1ccc2c(c1)OCCO2,1%
Cc1ccc(-c2noc([C@@H]3Cc4nc[nH]c4CN3C(=O)c3ccccc3)n2)cc1,-1%[70.6 µM]
O=C(NCc1nnc2c(-c3nc(C4CC4)no3)cccn12)c1nccc2ccccc12,-13%
CCOc1ccc(C(=O)N2CCC3(CC2)N(C)C(=O)CS3(=O)=O)cc1,3%
Cc1nn(C(=O)CCC(=O)N2CCC(Cc3nncn3CC3CC3)CC2)c2ccccc12,-12%
COc1cccc(C(=O)N(CC(C)C)CC2CN(C(=O)Nc3ccccc3)CCO2)c1 (stereo unspecified),-1%
COCCNC(=O)[C@@H]1C[C@H](Oc2cccnc2)CN1C(=O)c1ccc(C)s1,4%
O=C(C1CCCC1)N1CCC(CCOc2ccccc2F)C1 (stereo unspecified),-15%
Cc1ccc(NC(=O)Cn2c(C)cc3nc4n(c(=O)c32)CCCC4)c(Cl)c1,5%
CC(C)C(=O)N1CCOC[C@H](Oc2ccc(C(F)(F)F)cn2)C1,1%[70.6 µM]
CN1C(=O)C(CC(=O)N2CCC(C#N)CC2)(Cc2ccccc2)c2ccccc21 (stereo unspecified),2%
CCc1cccc2c(C(CC(=O)NCCc3ccc(OC)c(OC)c3)c3cccc(F)c3)c[nH]c12 (stereo unspecified),-16%
SMILES,NPR1 antag
CNc1nc2c(c(C(=O)N3CCCC3)n1)CN(CC1(O)CCNC1)CC2 (stereo unspecified),5%
COc1ccccc1-c1cc2c(ccn2C)c(C(=O)NCc2cnccn2)n1,-2%[70.6 µM]
CCC(c1cccs1)N1C(=O)[C@H]2CN(S(=O)(=O)Cc3ccccc3)C[C@H]2C1=O (stereo partly specified),-4%
C[C@@H]1CN(c2cc(C3CC3)ncn2)C[C@@]1(O)C1CCC1,3%
O=C(O)C1Cn2cccc2C(=O)N1Cc1cccnc1 (stereo unspecified),4%
COCCn1nc2n(c1=O)CCN(C(=O)COc1ccc(Cl)cc1C)CC2,-2%
Cc1nn2c(c1-c1ccccc1Oc1ccccc1)N(C(=O)Cc1cccc(F)c1)CCC2,u
Oc1cccc(-c2cc(C3=CCOCC3)c3cncn3c2)c1,-11%[70.6 µM]
Cc1c(C(C)NC(=O)C(=O)c2ccco2)cnn1-c1cccc2ccccc12 (stereo unspecified),-8%
COCCOC1CCOC2(CCN(C(=O)CCc3nc4ccccc4s3)CC2)C1 (stereo unspecified),-15%
CN1CCN(Cc2nc(C3(O)CCN(C4CCCC4)CC3)cs2)CC1,2%[70.6 µM]
CCC(C(=O)Nc1ccc2ncnc(N3CCCC3)c2c1)c1ccccc1 (stereo unspecified),-20%
Cc1nonc1OCCn1cc(-c2ccc(CO)o2)nn1,1%
COc1ccc(C(=O)NC2CCN(c3cc(-c4cccs4)[nH]n3)CC2)cc1F,-17%
C/C=C(\C)CN1CCCC(C(=O)Nc2ccccc2-c2ccc(OC)cc2)C1 (stereo unspecified),-4%
O=C(Nc1ccccc1C(F)(F)F)[C@@H]1COCC(=O)N1Cc1ccc(F)cc1,2%
Cc1ccc(NC(=O)NCCc2ncc(C)n2C2CCC2)cc1C,-16%
O=C(Nc1ccc([C@@H](O)[C@H]2COCC(=O)N2CCCc2ccccc2)cc1)c1ccco1,6%[70.6 µM]
CN1Cc2ccc(NCc3ccccc3)nc2C(C)(C(=O)Nc2ccccc2)C1 (stereo unspecified),-28%[70.6 µM]
CCC(C)NC(=O)N1CC(Oc2cccc(-c3nc(C)no3)c2)C1 (stereo unspecified),-6%
COc1ccc(CCc2nc3nccc(-c4ccncc4)n3n2)cc1,1%
O=C(c1csc(Cc2ccccc2)n1)N1CCC2(CCNCC2)CC1,-1%
Cc1cccc(OCC(=O)N[C@@H]2CN(c3ncccn3)C[C@H]2CN(C)C)c1,-3%
Cc1ncsc1CN1CCc2nn(C)c(=O)n2CC1,-6%
COc1ccc(NC(=O)c2c(C)nc3n2CCC(Nc2ccc(F)cc2)C3)cn1 (stereo unspecified),8%[70.6 µM]
SMILES,NPR1 antag
Cc1ccc2oc(=O)n(CCC(=O)N[C@@H]3COCC[C@@H]3OCC3CC3)c2c1,-2%
Cc1ncc(C(=O)N[C@H]2CC[C@H]2NC2CCCC2)c(-c2ccccc2)n1,3%
CNC(=O)c1cccc(-c2cnc3[nH]cc(CC(=O)Nc4cccc(F)c4)c3c2)c1,1%[70.6 µM]
CC(C)(C)c1ccc(-n2ncc3c2CCCC3NC(=O)c2c[nH]c(=O)[nH]c2=O)cc1 (stereo unspecified),8.9µM*
CC(C)c1ccc(CC(=O)N2CCCc3ncc(C(=O)NCc4cccnc4)cc32)cc1,0%[70.6 µM]
O=C(NCC1(COc2ccccc2)C[C@@H](O)[C@@H](O)C1)C1CCCC1 (stereo partly specified),u
Nc1nc2c(c(N3CC[C@@H](O)C3)n1)CCN(C(=O)[C@H]1CCCO1)CC2,-1%
Cc1cccc(NC(=O)Cn2c(-c3cnccn3)nc(C)c(C)c2=O)c1,-15%
O=C1CCC2(C(=O)NCCc3ccccc3)CCCC=C2N1c1ccccc1 (stereo unspecified),-23%
COc1ccc2c(c1)CN(C(C)=O)CC[C@H]1COC(=O)N21,2%[70.6 µM]
CC(C)CCC(=O)N1CCCC1C(=O)Nc1ccccc1Oc1cccnc1 (stereo unspecified),-3%
COCCCNC(=O)C1(CCO)CC12CCOCC2 (stereo unspecified),-2%
COCc1cc(=O)n(CC(=O)Nc2cccc(C(C)=O)c2)c(N2CCOCC2)n1,-6%
O=C(NC1CCCCC1)C1CN(S(=O)(=O)c2cccc(Cl)c2)CC12CCOCC2 (stereo unspecified),-14%
O=C(C1CCN(c2nc(-c3ccccc3)nc3c2CCC3)CC1)N1C[C@H]2CC[C@H]1C2,1%
O=C(Cc1ccc(Cl)cc1)NC1CCN(c2cc(C(F)(F)F)ncn2)CC1,u
COc1ccc(C(=O)N2CCC[C@H]2c2nc(-c3ccc(C)cc3)no2)cc1F,-10%
CN(C)c1ccc(CN2CCC3(C2)C(=O)N(C)c2ccccc23)cc1 (stereo unspecified),-6%[70.6 µM]
COc1ccccc1Nc1ncc2c(n1)CN(C(=O)c1ccnn1C)CCN2,-6%[70.6 µM]
CS(=O)(=O)N1CCC(OC2CCN(C(=O)NC3CCCCC3)CC2)CC1,1%
COc1ccc([C@H]2CN(C(=O)c3ccccc3-c3nn[nH]n3)C[C@@H]2N)cc1,4%
CCOCC(=O)N1CCC(Cc2ccc(C(=O)N(C)C)cc2)CC1,-1%
O=C(c1ccccc1)N1CCC2(CC1)C(=NC1CCCCC1)NC(=O)N2c1cccnc1,19%
COc1ccc(-c2cc(N3CCC(NC(=O)c4ccc(Cl)cc4OC)CC3)n[nH]2)cc1,-16%
Cc1noc(-c2nc(-c3ccc(Cl)c(F)c3)no2)n1,-2%
SMILES,NPR1 antag
CC[C@H]1CN(S(=O)(=O)c2ccc(OC)cc2)CC[C@H]1CC(=O)NCCSC,4%[70.6 µM]
CC(=O)N1CCC(N2C[C@@H]3OCC(=O)N(CC4CC4)[C@@H]3C2)CC1,-4%[70.6 µM]
O=C1CCCN1CCCN1C(=O)[C@@H]2C[C@@H](O)CN2C2(CN(Cc3cccs3)C2)C1=O,3%[70.6 µM]
Cc1cccc(C(=O)N2CCC3(CC2)N=C(c2cccc(Br)c2)NO3)c1,u
CC(C)c1ccc(C(=O)N2CCC3(CC2)OC(=O)N(Cc2ccc(O)cc2)C3(C)c2ccccc2)cc1 (stereo unspecified),5%
CCC(CC)C(=O)NC[C@H]1O[C@@H](CC(=O)N2CCN(c3ccc(F)cc3)CC2)[C@H](O)[C@@H]1O,0%
COc1ccc(NC(=O)Cn2c(-c3ccc(F)cc3)nc(C)c(CCO)c2=O)cc1OC,-6%
COC[C@@H]1CN(S(=O)(=O)c2ccc(C)cc2)C[C@H]1c1ccncc1,-17%
CN1CCC(Oc2ncccc2NC(=O)c2ccncc2)C1 (stereo unspecified),-1%
CNC(=O)Nc1ccc(C2(C(=O)NCc3ccc(F)cc3Cl)CCC2)cc1,3%

# 15 compounds out of the list, ordered by number of heavy atoms, lowest first:
SMILES,NPR1 antag
Cc1nnc2ccc(NC3CC3)nn12,3%
C[C@@H]1CN(c2cc(C3CC3)ncn2)C[C@@]1(O)C1CCC1,3%
Oc1cccc(-c2cc(C3=CCOCC3)c3cncn3c2)c1,-11%[70.6 µM]
O[C@@H]1CCN(Cc2nc(C3(O)CCN(CC4CC4)CC3)cs2)C1,-1%[70.6 µM]
Cc1ccc(NC(=O)NCCc2ncc(C)n2C2CCC2)cc1C,-16%
Cc1[nH]nc(CCC(=O)N[C@H]2CN(CCC(=O)O)C[C@@H]2C(C)C)c1C,17%
Cc1cccc(NC(=O)Cn2c(-c3cnccn3)nc(C)c(C)c2=O)c1,-15%
Cc1cccc(OCC(=O)N[C@@H]2CN(c3ncccn3)C[C@H]2CN(C)C)c1,-3%
CC(C)CCC(=O)N1CCCC1C(=O)Nc1ccccc1Oc1cccnc1 (stereo unspecified),-3%
O=C(Cc1cccc(C(F)(F)F)c1)N1CCN(c2nnc3ccc(Cl)cn23)CC1,0%
O=C(C1CCN(c2nc(-c3ccccc3)nc3c2CCC3)CC1)N1C[C@H]2CC[C@H]1C2,1%
CCc1ccc(NC(=O)N2CCC(N3CC4CC(C3)[C@H]3CCCC(=O)N3C4)CC2)cc1 (stereo partly specified),2%
Cc1nn(C(=O)CCC(=O)N2CCC(Cc3nncn3CC3CC3)CC2)c2ccccc12,-12%
CC(C)c1ccc(CC(=O)N2CCCc3ncc(C(=O)NCc4ccc(F)cc4)cc32)cc1,-21%
CCc1cccc2c(C(CC(=O)NCCc3ccc(OC)c(OC)c3)c3cccc(F)c3)c[nH]c12 (stereo unspecified),-16%
